High-throughput results deposited in PubChem BioAssay by National Center for Advancing Translational Sciences (NCATS).
A488 fluor: compound fluoresces in the A488 spectral region; AID 591; max dye equivalency, M; compound autofluorescence, A488 spectral region, dye equivalency; active compounds read high; 59,000 compounds, 0.1% hits; active = above 10 nM dye equivalent; inconclusive = 1 to 10 nM; inactive = 1 nM or less; about half of its hits are not listed in these tables;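 further: highest value over a series up to 38 µM; compound alone in buffer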
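Intrinsic compound fluorescence is measured in 100 mM Tris buffer at pH 8.0 following 15 min incubation at room temperature. Intensities at 480 nm excitation/540 nm emission are calibrated to an on-plate A488 concentration series, giving dye-equivalent concentrations.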
A647 fluor: compound autofluorescence in A647 spectral region; Compound fluorescence, A647 channel (570/671 nm), Tris buffer; max dye-equivalent concentration, M; 59,000 tested, under 10 active; active means above 1 µM dye equivalent; inconclusive means 0.1 to 1 µM; inactive means 0.1 µM or less;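 further: values scaled relative to a standard on each plate; highest value over a series up to 38 µM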
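Spectral profiling of library compounds in pH 8.0 Tris: 15 min room-temperature incubation, single ex/em pair (570/671 nm), response normalized to Alexa 647 equivalents.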
TSHR ag: agonists of human thyroid stimulating hormone receptor | Potency, µM (series often up to 57.1 µM), for the others: at the highest dose activation, usual class: activators | HEK293-CNG-TSHR cells (CNG channel as cAMP sensor), membrane potential dye, cAMP | 73,000 compounds, 0.48% hits | AID 926; active = well fitted activation curve of enough size with the parental cells flat; inconclusive = any curve in the parental cells; inactive = parental cells flat and receptor cells flat or falling; further: potency means the concentration at half of the fitted maximal effect; % of control where 0% means no effect; weak receptor curves with flat parental cells got no call and are not listed
Target sequence (P16473 whole entry, looked up): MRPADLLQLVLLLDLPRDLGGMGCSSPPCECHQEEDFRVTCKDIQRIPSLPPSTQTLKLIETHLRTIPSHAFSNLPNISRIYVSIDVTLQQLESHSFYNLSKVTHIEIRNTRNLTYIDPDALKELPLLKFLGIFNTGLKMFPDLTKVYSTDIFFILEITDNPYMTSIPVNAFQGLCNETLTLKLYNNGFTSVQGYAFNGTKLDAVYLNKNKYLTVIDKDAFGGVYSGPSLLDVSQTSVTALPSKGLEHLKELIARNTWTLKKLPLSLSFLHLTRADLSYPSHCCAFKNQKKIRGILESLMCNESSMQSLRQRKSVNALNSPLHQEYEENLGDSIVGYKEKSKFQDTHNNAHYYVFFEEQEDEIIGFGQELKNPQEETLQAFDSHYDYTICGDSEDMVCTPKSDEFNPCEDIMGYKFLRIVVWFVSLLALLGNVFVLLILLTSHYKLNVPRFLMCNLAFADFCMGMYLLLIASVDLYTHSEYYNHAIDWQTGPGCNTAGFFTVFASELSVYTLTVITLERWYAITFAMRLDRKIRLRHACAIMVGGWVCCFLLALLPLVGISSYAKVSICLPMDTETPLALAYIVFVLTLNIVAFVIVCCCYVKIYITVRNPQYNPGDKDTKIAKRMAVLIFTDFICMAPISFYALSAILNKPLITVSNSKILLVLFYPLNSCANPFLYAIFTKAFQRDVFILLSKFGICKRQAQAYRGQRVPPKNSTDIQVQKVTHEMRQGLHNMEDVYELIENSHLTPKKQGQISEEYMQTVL
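HEK 293 cells stably expressing TSHR and a cAMP-gated CNG channel; parental CNG-only cells as counterscreen. Cells preloaded 60 min with membrane potential dye plus 100 uM RO 20-1724, then compound 30 min; fluorescence read at 590 nm.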
Resorufin autofl: compound fluoresces in the resorufin spectral region | 59,000 compounds, 0.04% hits | max dye-equivalent concentration, M | Compound fluorescence, resorufin region 547/598 nm, buffer; active compounds read high; active = above 10 nM dye equivalent; inconclusive = 1 to 10 nM; inactive = 1 nM or less; a few of its hits are not listed in these tables; further: highest value over a series up to 38 µM
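Tris 100 mM pH 8.0; compound added, 15 min RT; CCD imager read, ex 547 nm/em 598 nm; signal normalized to resorufin standard curve (six concentrations per plate) as dye-equivalent concentration.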
AID923: qHTS Assay for Allosteric/Competitive Inhibitors of Caspase-1: Spectroscopic Profiling in AFC Spectral Region; Potency, µM (titrated, usually from 57.5 µM), for inactives: top-dose fluorescence increase, most hits filed as activators; compound fluorescence, AFC spectral region (405/520 nm); almost no hit is shown here; 75,000 compounds, 1.1% hits; active means well fitted activation curve with a large enough effect; inconclusive means small, poorly fitted or top-dose-only effect;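 further: potency means the concentration at half of the fitted maximal effect; 0% is about no effect; scaled to a free AFC standard on each plate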
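Compound autofluorescence profiled at 405 nm ex/520 nm em during kinetic caspase 1 run (50 nM enzyme, 5 uM Ac-WEHD-AFC, HEPES pH 7.5, 10 mM DTT). Titration up to 57 uM; baseline from regression intercept, normalized to AFC standard curve.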
An asterisk follows results filed as active; i = inactive; u = inconclusive; x = no result given; & = joins results of further samples; [ ] = remark or other dose. These rows are one share of the data; count on the stated rates, not on these rows.

Results follow in this order: A488 fluor, A647 fluor, TSHR ag, Resorufin autofl, AID923
- CC(=O)Nc1ccc(S(=O)(=O)NCc2ccc(C(=O)NCCN3CCCCCC3)cc2)cc1
→ i, 1.7e-08, -1%, i, 0.9%
- CCN(CC)S(=O)(=O)c1ccc(F)c(C(=O)NCCCN2CCOCC2)c1
→ i, 3e-09, 2%, i, 1.5%
- N#CC12CCCCC1CC1CCCCC1(C#N)N2Cc1ccccn1 (centres undefined)
→ i, 1e-09, x, i, x
- O=C(O)CCc1ccc(-c2cccs2)n1NC(=O)c1ccco1
→ i, 1e-09, 8%, i, -2.2%
- CCOC(=O)c1ccccc1NC1c2ccccc2C(=O)N1C1CCN(C(=O)OCC)CC1 (centres undefined)
→ x, x, u, x, 2.3%
- COc1ccc(OC)c(C2=NOC(C(=O)Nc3cccnc3)C2)c1 (centres undefined)
→ i, 1.5e-08, 7%, i, 0.3%
- CCOC(=O)C1=C(O)C(=O)N(c2ccc(S(N)(=O)=O)cc2)C1c1ccc(OC)cc1OC (centres undefined)
→ i, 1.9e-09, 5%, i, 1.2%
- COc1ccc(S(=O)(=O)N2CCN(Cc3ccc4c(c3)OCO4)CC2)c2ccccc12
→ x, x, 0%, x, -0.2%
- Cn1c(C(=O)NCc2ccccn2)cc2c(=O)n(C)c3ccccc3c21
→ x, x, -5%, x, 0.4%
- CCC(C)(C)n1nnnc1C(c1cc2cccc(C)c2[nH]c1=O)N1CCN(C(=O)c2ccco2)CC1 (centres undefined)
→ i, 7.5e-09, -1%, i, 4.3%
- CCc1c(C)nc(/N=C(/NC(=O)c2ccccc2)Nc2ccccc2OC)[nH]c1=O
→ i, 3.1e-09, 15%, i, 1.1%
- COc1ccccc1-c1nccc(NCc2ccccc2)n1
→ i, 2.7e-08, u, i, 2.4%
- CCN1CCN(Cc2nc3c(c(=O)n(C)c(=O)n3C)n2CC(=O)c2ccccc2)CC1
→ x, x, 18%, x, -2.1%
- O=C(CC1SC2=NCCN2C1=O)Nc1ccc(Br)cc1 (centres undefined)
→ i, 1e-09, 2%, i, 1.5%
- COc1cc(OC)cc(C(=O)NC2CCSC2=O)c1 (centres undefined)
→ i, 5.1e-09, -3%, i, -1.6%
- Cc1occc1-c1nnc(SCC(=O)NC(=O)NC(C)C)n1N
→ i, 1e-09, -1%, i, -0.1%
- CSc1nnc(C2CCCN2)n1C (centres undefined)
→ i, 6.4e-08, -1%, i, -0.3%
- COCCNC(=O)CSc1nc2ccccc2c(=O)n1CCCC(=O)NCc1ccccc1
→ i, 3.8e-08, 6%, i, -0.8%
- CC1C(=O)C(C)C(c2ccco2)NC1c1ccco1 (centres undefined)
→ i, 1e-09, 0%, i, 0.9%
- COc1ncc2nc(CCc3ccccc3)c(=O)n(Cc3ccc(F)cc3)c2n1
→ i, 1e-09, u, i, 2.9%
- CC(C)(C)C1CCc2[nH]nc(C(=O)O)c2C1 (centres undefined)
→ i, 5.3e-09, -3%[11.4 µM], i, -1.4%
- Cc1cc(C)n(C(=O)CNC(=O)COc2ccccc2)n1
→ i, 2.5e-08, -4%, i, 1.9%
- CCc1c(C)nc2cc(-c3cccs3)[nH]n2c1=O
→ x, x, -8%, x, 1.1%
- COCCNc1nc(SCC(=O)N2CCN(c3ccccc3OC)CC2)nc2ccccc12
→ i, 4.4e-09, u, i, -2.4%
- Cc1ccc(-c2noc(CN3CCN(Cc4ccccc4)CC3)n2)cc1
→ i, 2.7e-08, u, i, 1.2%
- O=C(C1CCN(S(=O)(=O)N2CCOCC2)CC1)N1CCc2ccccc21
→ i, 1e-08, x, i, 0.1%
- COc1ccc(CNc2ncnc3ccc(-c4ccoc4)cc23)c(OC)c1
→ i, 1.2e-08, u, i, 2.4%
- Cc1ccc(C(=O)N2CCCCCC2)cc1Br
→ i, 1.9e-09, u, i, 0.6%
- Cc1ccccc1-n1c(=O)cc(N2CCN(Cc3ccccc3)CC2)[nH]c1=O
→ x, x, 14%, x, -0.8%
- COc1ccc(-n2nnnc2SCC#CCO)cc1
→ i, 4.1e-08, 4%, i, 2.1%

Only A647 fluor and A488 fluor (4 entries from above):
mol	A647 fluor	A488 fluor
COCCNc1nc(SCC(=O)N2CCN(c3ccccc3OC)CC2)nc2ccccc12	4.4e-09	i
Cc1ccc(-c2noc(CN3CCN(Cc4ccccc4)CC3)n2)cc1	2.7e-08	i
O=C(C1CCN(S(=O)(=O)N2CCOCC2)CC1)N1CCc2ccccc21	1e-08	i
COc1ccc(CNc2ncnc3ccc(-c4ccoc4)cc23)c(OC)c1	1.2e-08	i

In a second layout: 2 of the compounds above.
COc1ccccc1-c1nccc(NCc2ccccc2)n1
  A488 fluor: i	A647 fluor: 2.7e-08	TSHR ag: u	Resorufin autofl: i	AID923: 2.4%
CCN1CCN(Cc2nc3c(c(=O)n(C)c(=O)n3C)n2CC(=O)c2ccccc2)CC1
  A488 fluor: x	A647 fluor: x	TSHR ag: 18%	Resorufin autofl: x	AID923: -2.1%

Later entries
Results follow in this order: A488 fluor, A647 fluor, TSHR ag, Resorufin autofl, AID923
- Cc1ccc(S(=O)(=O)c2c(C)nn(C(C)(C)C)c2OC(=O)C2CCCC2)cc1
→ i, 2.1e-08, u, i, -0.3%
- COc1nc(Oc2ccc(=O)[nH]n2)nc(N2CCOCC2)n1
→ i, 4.6e-08, -1%, i, -0.1%
- CCOC(=O)C1CCCN(c2c(NCC3CCCO3)c(=O)c2=O)C1 (centres undefined)
→ x, x, 4%, x, 0.0%
- Cn1c(SCc2ccc(C#N)cc2Cl)nc2ccccc21
→ x, x, u, x, -0.9%
- CCn1c(=NC(=O)CSCC(=O)Nc2nccs2)sc2ccccc21
→ i, 2.9e-08, u, i, 0.1%
- CCCC(C(=O)c1ccccc1)n1cncn1 (centres undefined)
→ i, 4e-08, -2%[11.4 µM], i, -1.0%
- CCS(=O)(=O)N1CCN(C(=O)c2cccnc2)CC1
→ x, x, -6%[11.4 µM], x, 0.6%
- COc1ccc2c(c1)nc(N)n2Cc1ccccc1
→ i, 1e-09, x, i, x
- COc1ccc(-c2ccc(C(=S)N3CCN(C(C)=O)CC3)o2)cc1
→ i, 2.1e-08, 10%[11.4 µM], i, 3.6%
- COc1ccccc1NC(=O)CSc1nnc(-c2ccoc2C)n1CCc1ccccc1
→ i, 2.6e-09, u, i, 1.3%
- O=C(CSc1nc(-c2ccccc2)cc(C(F)(F)F)n1)NCCN1CCOCC1
→ i, 4.2e-09, 0%, i, 0.5%
- O=C(O)CCSCCC(=O)O
→ x, x, 9%, x, -2.1%
- Cc1ccccc1Nc1nc(N)nc(CN(C)c2ccccc2)n1
→ i, 1.4e-09, 0%, i, -1.7%
- COc1ccccc1-c1nnc2sc(-c3cc4ccccc4o3)nn12
→ i, 2.2e-08, u, i, 0.1%
- CC(C)c1cccc2cc3c(nc12)-c1cccc(=O)n1C3
→ x, x, u, x, 0.2%
- CCOc1cc(C#N)c(NC(=O)Cn2nnc3ccccc32)cc1OCC
→ i, 1e-09, -7%[11.4 µM], i, 2.3%
- CCOC(=O)N1CCN(C(=O)CSc2nnc(-c3cccc(OC)c3)o2)CC1
→ i, 3.7e-08, 8%, i, 0.2%
- O=C(CN1CCNCC1)Nc1ccccc1Cl
→ i, 1e-09, 1%[11.4 µM], i, -0.6%
- Cc1csc(SCc2nnc(-c3ccccc3Br)o2)n1
→ i, 1e-09, 11%, i, -0.4%
- Cc1ccc2cc(-c3noc(C(C)(C)C)n3)c(=O)[nH]c2c1
→ i, 2e-08, u, i, 1.6%
- CCOCC(=O)N1CCCC(C(=O)OCC)C1 (centres undefined)
→ i, 1e-09, 0%, i, -1.9%
- CCOC(=O)c1c(C)c(C(=O)NCCOC)c(C)n1CC
→ i, 2.6e-09, 9%[11.4 µM], i, 0.1%
- Cc1ccc(OCC(=O)Nc2ccc(-c3nc4ncccc4o3)cc2)c(C)c1
→ i, 1e-09, 16µM*, i, 1.3%
- Cc1cc(C(=O)CSCc2nnc3n(CCC(C)C)c(=O)c4ccccc4n23)c(C)n1C
→ i, 6.8e-09, 16%, i, 0.4%
- Cc1nc2n(n1)C(c1ccccc1)C1=C(CC(c3ccco3)CC1=O)N2 (centres undefined)
→ i, 1.1e-09, 27%, i, 0.3%
- Cc1ccc(C)c(Oc2nnnn2-c2ccccc2)c1
→ i, 1e-09, u, i, 0.0%
- Cc1ccc(SCCNS(=O)(=O)c2ccc(F)cc2)cc1
→ x, x, 1µM*, x, 0.9%
- CCCS(=O)(=O)n1nc(-c2ccc(Br)cc2)cc1N
→ x, x, 18%, x, -3.6%
- CNc1ncnc2ccc(-c3ccccc3OC)cc12
→ i, 3.1e-08, 7%, i, -2.9%
- C=CCOC(=O)/C=C/NC(=O)/C=C/C=C/CCCCCCCC(C)O (centres undefined)
→ x, x, 5%&3%[11.4 µM], x, -0.4%&-2.6%[11.5 µM]
- CC1(c2cnc(Nc3ccccc3)s2)CCC(=O)O1 (centres undefined)
→ i, 4.4e-08, x, i, x
- CN(C)c1nc(Oc2ccc(=O)n(-c3ccccc3)n2)nc(N2CCOCC2)n1
→ i, 3.3e-08, u, i, 0.1%
- NS(=O)(=O)c1ccc(NCc2nc3ccccc3[nH]2)cc1
→ i, 1e-09, -6%[11.4 µM], i, 1.4%[11.5 µM]
- COc1ccc(C)cc1NC(=O)c1cnc2sccn2c1=O
→ x, x, 1%, x, 7.3%
- O=C(c1ccccc1)C(CCC(CN1CCOCC1)C(=O)c1ccccc1)CN1CCOCC1 (centres undefined)
→ i, 6.9e-08, x, i, x
- c1ccc(C[n+]2cccc(-c3cc4ccccc4[nH]3)c2)cc1
→ i, 5.5e-08, 4%[11.4 µM], i, -0.6%[11.5 µM]
- CC/C(=C\C(=O)c1ccncc1)Nc1ccc(O)cc1
→ x, x, -9%, x, -0.8%
- O=C(NCCN1CCOCC1)c1ccc(Cl)c(S(=O)(=O)N2CCCCCC2)c1
→ i, 1e-09, 16%, i, 0.2%
- Cc1cccn2c(=O)c3cc(C(=O)N4CCN(c5ccccc5)CC4)n(C)c3nc12
→ i, 1e-09, 8%, i, 3.6%
- CCn1c(CSc2nnc3ccccn23)nc2cc(C(=O)O)ccc21
→ i, 6.6e-08, -3%, 4.7e-08M*, -0.1%
- CCc1nnc(NC(=O)CSc2nnc(-c3cccnc3)n2CCc2ccccc2)s1
→ i, 1e-09, 0%, i, 0.9%
- Cn1c(=O)[nH]c(=O)c2c1nc(NC1CCCCC1)n2Cc1ccccc1
→ i, 1.4e-08, -9%, i, -1.8%
- CCn1c(CNc2ccc(F)cc2)nnc1SCC(=O)N1CCCc2ccccc21
→ i, 3.2e-09, -5%, i, 0.8%
- Cc1cc(C)cc(-n2nnc(C(=O)NCc3ccccc3)c2N)c1
→ i, 5.4e-09, 9%, i, 0.6%
- COc1cccc(-n2nnc3c(=O)n(CC(=O)N4CCC(C)CC4)cnc32)c1
→ i, 1e-09, 9%, i, -0.1%
- Cn1nc(-c2ccc(Cl)cc2)c2cc(C(=O)N3CCOCC3)sc21
→ x, x, 2%, x, 2.7%
- O=C1CSC(=S)N1CC1CCCO1 (centres undefined)
→ i, 3.2e-08, 1%, i, 0.2%
- O=C(Nc1ccc(S(=O)(=O)NCCc2ccccc2)cc1)c1ccco1
→ i, 3.1e-08, 5%, i, 0.3%
- Cc1ccc(S(=O)(=O)N2CCCCC2C(=O)N2CCN(Cc3ccccc3)CC2)cc1 (centres undefined)
→ i, 2.3e-08, 8%, i, 0.5%
- O=C(CN(c1ccc(Cl)c(C(F)(F)F)c1)S(=O)(=O)c1ccccc1)N1CCOCC1
→ x, x, u, x, 2.7%
- CC1CCN(C(=O)CSc2ccc3nnc(-c4ccccc4)n3n2)CC1
→ i, 2.9e-09, u, i, 2.0%
